# Source: PubChem (Molecular Libraries Program, Specialized Chemistry Center, University of Kansas)
# MgcRacGAP Rac1 = inhibition of MgcRacGAP-stimulated Rac1 GTP hydrolysis – biochemical, inorganic phosphate detection, orthogonal assay, confirmation (AID 652142); 2,400 tested, under 10 active; inhibition, %; MgcRacGAP/Rac1F28L GTP hydrolysis, Biomol green phosphate; active compounds read high; test concentration not given here; none was called active though about 1 in 100 pass the limit;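 active = inhibition over three standard deviations or about 65%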;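 note: full inhibition control lacks the GAP enzyme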
# Numbers without * were called inactive. Not all compounds are listed, so the mix of outcomes need not match the whole.
SMILES,MgcRacGAP Rac1
O=C(COc1ccccc1)N1CCN(CC2CC3C=CC2C3)CC1 (stereo not given),27
Cc1cc(/C=C2\C(=O)NC(=O)N(c3ccccc3F)C2=O)c(C)n1-c1cc(C(=O)O)cc(C(=O)O)c1,31
COc1ccc(Br)cc1CNCCc1cccc(Cl)c1,33
O=c1c2ccccc2nc(/C=C/c2ccc(O)c(O)c2)n1-c1ccccc1,20
O=C(COc1ccc2ccccc2c1)N1CCN(Cc2ccncc2)CC1,21
CN1CCN(c2ccc(N)cc2)CC1,11
O=C(COc1ccccc1)N1CCN(C2CCCC2)CC1,23
O=C1NC(=O)C(=Cc2coc3ccc(O)cc3c2=O)C(=O)N1,26
Cc1ccccc1N1C(=O)NC(=O)/C(=C\c2cnn(-c3ccccc3)c2)C1=O,37
O=C1CN(O)C(c2ccccc2)=c2cc(Br)ccc2=N1,25
COP(=S)(OC)SCn1nnc2ccccc2c1=O,11
COc1ccc(-n2c(/C=C/c3ccc(O)c(OC)c3)nc3ccccc3c2=O)cc1,15
CCc1c(C)nc(N)nc1N1N=C1SC(C(C)=O)C(C)=O,51
O=C1NC(=S)N(c2ccccc2)C(=O)/C1=C/c1ccco1,97
c1ccc(CN2CCN(Cc3ccc4ccccc4c3)CC2)cc1,19
C=CCNC(=S)Nc1ccc(OC(=O)Nc2ccc(Cl)c(Cl)c2)cc1,27
O=P1(c2ccccc2)Nc2ccccc2N1c1ccccc1 (stereo not given),25
